NPR1 antag – antagonists of human natriuretic peptide receptor Npr1; P16066; HEK293 hNpr1 GloSensor cGMP, ANP-stimulated luminescence; Potency, µM (top dose mostly 46.3 µM), for the others: top-dose activity change, negative = inhibition, actives largely listed as inhibitors; 1.6% of 76,000 active; AID 1347048; active = well fitted inhibition curve with a large enough effect; inconclusive = small, poorly fitted or top-dose-only effect; inactive = no such curve, though single readings can be large or run the other way;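 further: nearly all actives have a fitted effect of over 60% in size; nearly all hits also lower the signal before the agonist is added; a reference antagonist and vehicle were the controls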
Target sequence (P16066 whole entry, looked up): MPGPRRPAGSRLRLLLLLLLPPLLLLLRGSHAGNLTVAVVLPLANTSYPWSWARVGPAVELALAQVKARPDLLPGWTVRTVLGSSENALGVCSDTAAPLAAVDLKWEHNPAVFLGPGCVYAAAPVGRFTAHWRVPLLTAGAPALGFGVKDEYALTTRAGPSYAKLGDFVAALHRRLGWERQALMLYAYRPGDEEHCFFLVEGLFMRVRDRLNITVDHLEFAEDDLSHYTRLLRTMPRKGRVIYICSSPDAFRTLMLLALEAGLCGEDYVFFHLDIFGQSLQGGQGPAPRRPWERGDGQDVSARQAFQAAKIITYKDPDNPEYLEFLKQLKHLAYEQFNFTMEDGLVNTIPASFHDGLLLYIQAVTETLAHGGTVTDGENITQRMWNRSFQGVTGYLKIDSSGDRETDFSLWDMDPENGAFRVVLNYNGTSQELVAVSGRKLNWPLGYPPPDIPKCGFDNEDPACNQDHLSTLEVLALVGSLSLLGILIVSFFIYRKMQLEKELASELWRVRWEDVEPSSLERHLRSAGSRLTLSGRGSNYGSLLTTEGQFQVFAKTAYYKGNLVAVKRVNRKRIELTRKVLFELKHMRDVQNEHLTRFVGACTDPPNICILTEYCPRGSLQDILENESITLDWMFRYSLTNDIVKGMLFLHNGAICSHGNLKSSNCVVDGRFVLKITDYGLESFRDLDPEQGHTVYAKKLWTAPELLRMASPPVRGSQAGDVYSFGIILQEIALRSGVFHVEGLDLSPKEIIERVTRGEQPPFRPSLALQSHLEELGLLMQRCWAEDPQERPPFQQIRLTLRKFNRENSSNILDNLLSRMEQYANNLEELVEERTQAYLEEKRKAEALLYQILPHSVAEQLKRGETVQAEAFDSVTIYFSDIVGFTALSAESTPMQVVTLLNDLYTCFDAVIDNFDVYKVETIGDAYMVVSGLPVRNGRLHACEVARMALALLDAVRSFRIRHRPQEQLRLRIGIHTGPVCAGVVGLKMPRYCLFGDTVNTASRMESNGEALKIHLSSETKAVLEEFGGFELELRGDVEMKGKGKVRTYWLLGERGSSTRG
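HEK293 cells stably expressing human Npr1 and cGMP GloSensor pGS-40F, loaded 2 h with 2% GloSensor reagent, given compound 30 min at room temperature. Luminescence read before and 20 min after 0.1 nM hNppA.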
Active calls of the source: *; u = inconclusive; [ ] = another dose, or the depositor's remark. On the % scale 0 is the no-effect control and ±100 the full control effect; potency means the concentration at half of the fitted maximal effect.

| structure | NPR1 antag |
| --- | --- |
| CC(C)CC(NC(=O)c1cnc2ccccc2c1)c1nnc2n1CCNCC2 (configuration not stated) | 0% |
| O=C(NC1CCCC1)N1c2ccccc2CC1c1nc(C2CC2)no1 (configuration not stated) | u |
| COCCN1C(=O)[C@H]2CN(Cc3cc(F)ccc3F)C[C@H]2C1=O | -1% |
| COCCN1C(=O)Cc2ccccc2C1C(=O)NCc1cccc(Cl)c1 (configuration not stated) | -5% |
| O=C(c1ccc2c(c1)OCO2)N1CCC2(CC1)NC(=O)N(Cc1ccccc1)C2=O | -2% |
| CCN1CC(c2ccccc2)CC2(CCN(C(=O)c3ccc(C)nc3)CC2)C1 (configuration not stated) | 3% |
| COc1ccc(CNC(=O)C[C@@H]2C[C@H]3O[C@H](CN)[C@@H](O)[C@H]3O2)cc1 | 2%[70.6 µM] |
| Fc1ccc(-c2noc([C@@H]3CCCN3Cc3ccc(Cl)cc3)n2)nc1 | 3%[70.6 µM] |
| O=C(Cc1ccc(N2CCNC2=O)cc1)N1CCC2(CC1)[C@H](O)C[C@@H]2O | 0% |
| O=C(Cc1c[nH]c2ncc(-c3cn[nH]c3)cc12)NCc1cccnc1 | -4%[70.6 µM] |
| O=C(NC1CC1)c1nc(-c2ccc(F)cc2)c2cnccn12 | 1%[70.6 µM] |
| O=C1N(CC2CCC2)CCCC1(O)CNCC1CCCCC1 (configuration not stated) | -1% |
| O=C(N[C@H]1C[C@H]2C(=O)Nc3ccc(-c4cccs4)cc3C(=O)N2C1)c1ccccc1 | u |
| Cc1ccc(CN2CCC3(CC2)CCN(C2CCOCC2)CC3CO)s1 (configuration not stated) | 0% |
| Cc1cn2nc(C(=O)NCc3ccccc3Cl)cc2c(N2CCCC2)n1 | 0% |
| Cn1ccnc1CN1CCN(C(C(=O)O)c2cccc3c2OCC3)CC1 (configuration not stated) | -1% |
| Cc1ccc(NC(=O)N2CCCC(Cn3c(C4CC4)nc4cccnc43)C2)cc1C (configuration not stated) | 8% |
| CCOc1ccccc1NC(=O)Cn1c(N2CCOCC2)nc(C)cc1=O | 1% |
| O=C(N1CCC(NS(=O)(=O)c2ccccc2)CC1)N1CC2CC(C1)[C@H]1CCCC(=O)N1C2 (some centres not stated) | -2% |
| O=C(c1ccc(Cl)nc1)N1CCc2nc(C3CC3)nc(-c3ccc(Cl)cc3)c2C1 | -13% |

3 compounds from above, arranged by the value under NPR1 antag, lowest first.
Structure	NPR1 antag
O=C1N(CC2CCC2)CCCC1(O)CNCC1CCCCC1 (configuration not stated)	-1%
CCOc1ccccc1NC(=O)Cn1c(N2CCOCC2)nc(C)cc1=O	1%
Cc1ccc(NC(=O)N2CCCC(Cn3c(C4CC4)nc4cccnc43)C2)cc1C (configuration not stated)	8%

More entries follow:
| structure | NPR1 antag |
| --- | --- |
| CN(CC1Cc2ccccc2O1)C(=O)c1coc(COc2ccc3c(c2)OCO3)n1 (configuration not stated) | 1% |
| Cc1ccc(Br)c(C(=O)NCc2ccnc3[nH]ccc23)c1 | 4% |
| O=C(COc1ccccc1)Nc1ccc([C@@H](O)[C@H]2COCC(=O)N2CC2CC2)cc1 | 0%[70.6 µM] |
| COC(=O)[C@H](Cc1ccc(OC)cc1)NC(=O)[C@H]1CN(C(=O)c2cccnc2)CCN1C(C)=O | 2% |
| CCNC(=O)Cc1ccc(N(Cc2ccc(F)cc2)C(=O)c2ccco2)cc1 | 2% |
| C#CCN(C)CC[C@@H]1CC[C@H](O)[C@@H](C(=O)NCc2ccc(OC)cc2)O1 | -1%[70.6 µM] |
| COc1ccc(CCNC(=O)C2CCN(c3cn[nH]c(=O)c3)C2)cc1OC (configuration not stated) | 3% |
| CC[C@H]1CN(C(=O)Nc2cccc(C(F)(F)F)c2)CC[C@H]1CC(=O)Nc1ccccc1 | -8%[70.6 µM] |
| COc1ccccc1Oc1ncccc1CNC(=O)c1ccc(C)nc1 | 5% |
| Cn1cc(CN2CCN3CCCC3C2)c(-c2ccc(C3CCCCC3)cc2)n1 (configuration not stated) | 6% |
| O=[S+]([O-])(Nc1cccnc1)c1ccc2c(c1)OCCN(Cc1ccc(F)cc1)C2 | u |
| CCc1ocnc1C(=O)N1CCC(C(=O)O)(n2cc(C)cn2)CC1 | 1% |
| COCCCNC(=O)N1CCCCCNC(=O)[C@@H]2CCCC[C@@H]21 | 3% |
| O[C@H]1CC[C@@H](Cc2cc(CN3CCN(c4ccccc4)CC3)on2)O[C@@H]1CNCc1ccccc1 | -1% |
| COc1cccc(C(=O)N2CCC3(CC2)N=C(c2ccccc2)NO3)c1 | -2% |
| CN1CCCN(C(=O)c2cc(F)cc(F)c2)c2ccccc21 | -2% |
| O=C(C1CCCC1)N1CCc2nc(C3CC3)nc(-c3ccc(Cl)cc3)c2C1 | 1% |
| O=C(O)c1ccccc1C(=O)N1C[C@@H]2C[C@H]1C(=O)N(Cc1ccccc1)c1ccccc1O2 | -8% |
| CC(C)CC(=O)N1CCCC(c2noc(COc3ccccc3)n2)C1 (configuration not stated) | -3% |
| COc1ccc(-c2cc(N3CCC(NC(=O)c4ccc(F)cc4F)C3)n[nH]2)cc1 (configuration not stated) | -9% |
| CC(=O)Nc1cccc(NC(=O)C2CC(=O)N(c3n[nH]c4ccccc34)C2)c1 (configuration not stated) | 7% |
| O=c1[nH]c(C2CCCN(Cc3cccc(-c4ccc(F)cc4F)c3)C2)nc2ccc(F)cc12 (configuration not stated) | u |
| CC(C)CNC(=O)C1COC2(CCN(C(=O)c3ccccc3Cl)CC2)N1C(=O)c1ccccc1 (configuration not stated) | -3% |
| CN(C)c1cccc(C(=O)N2CCC3(CCCN(CC4CC4)C3)C2)c1 (configuration not stated) | 4% |
| CC(C)NC(=O)c1nc2sccn2c1Br | 0%[70.6 µM] |
| O=C1NCCCCCN(Cc2cccnc2)[C@@H]2CN(C(=O)C3CCCCC3)CC[C@@H]12 | 6% |
| COc1ccc(Nc2cnc3ccc(-c4cccc(CO)c4)nn23)cc1OC | -15%[70.6 µM] |
| CCCNC(=O)N1CCC(c2nc(CCOCC3CCOCC3)no2)C1 (configuration not stated) | 14% |
| O=C(NCc1ccccc1)N1CCC(O)(c2csc(CN3CCc4ccccc4C3)n2)CC1 | 2% |
| COc1ccc(CNC(=O)c2c(C)noc2-c2cccs2)cc1 | 1% |
| C[S+](=O)([O-])N1CCC(Cn2ccc3c(N4CCOCC4)nc(-c4ccncc4)cc32)CC1 | 3% |
| O=C(Nc1ccc(=O)n2c1[C@@H]1C[C@@H](CN(S(=O)(=O)c3ccccc3)C1)C2)c1ccc2c(c1)OCO2 | -4% |
| Cc1ccc(NC(=O)C2CC(=O)Nc3nc(C)nn32)cc1 (configuration not stated) | -4% |
| CCCn1c(C)cnc1CC1CCN(C(=O)c2cnc(C)cn2)CC1 | -2% |
| CN(Cc1cccc(C(F)(F)F)c1)C(=O)Nc1ccc(Cl)cc1 | -7% |
| COc1ccc(-c2cc(N3CCN(C(=O)c4ccc(Cl)cc4OC)CC3)n[nH]2)cc1 | u |
| Cc1nc(C)c(C(=O)N2CCC(CC(=O)N(C)Cc3ccccc3)C2)s1 (configuration not stated) | -1% |
| Cc1ccc(NC(=O)Cn2c(-c3cccc(Cl)c3)nc(C)c(CCO)c2=O)cc1 | -3% |
| COc1ccc(CN2C(=O)CO[C@H]3CN(C4CCC4)C[C@H]32)cc1 | -14%[70.6 µM] |
| CC(C)c1noc(-c2cccn3c(CNC(=O)c4cc(F)ccc4Cl)nnc23)n1 | -2% |

Nothing new here: entries from further up.
| structure | NPR1 antag |
| --- | --- |
| CC(C)CC(NC(=O)c1cnc2ccccc2c1)c1nnc2n1CCNCC2 (configuration not stated) | 0% |
| O=C(NC1CCCC1)N1c2ccccc2CC1c1nc(C2CC2)no1 (configuration not stated) | u |
| COCCN1C(=O)[C@H]2CN(Cc3cc(F)ccc3F)C[C@H]2C1=O | -1% |
| COCCN1C(=O)Cc2ccccc2C1C(=O)NCc1cccc(Cl)c1 (configuration not stated) | -5% |
| O=C(c1ccc2c(c1)OCO2)N1CCC2(CC1)NC(=O)N(Cc1ccccc1)C2=O | -2% |

(listing goes on)
| structure | NPR1 antag |
| --- | --- |
| CN(C)C(=O)c1ccc(OC2CCN(C(=O)C3CCCCC3)CC2)nc1 | -12% |
| O=C1NC2(CCCN(CC3CCCCC3)C2)Oc2ccccc21 (configuration not stated) | 23%[70.6 µM] |
| O=C1CN(C(=O)CCC[C@@H]2[C@H]3CCCN4CCC[C@@H](CN2Cc2ccccc2)[C@@H]34)CCN1 | 2% |
| Cc1ccc(NC(=O)CN2C(=O)NC3(CCCCC3)C2=O)c(C)c1 | 4% |
| N#Cc1cccc(NC(=O)CN2C(=O)NC(c3ccc(Cl)cc3)C3=C2COC3=O)c1 (configuration not stated) | -18% |
| COCc1cc(N2CCc3onc(-c4cccc5ccccc45)c3C2)ncn1 | 13µM* |
| CC(C)c1nc2cc(NC(=O)C[C@H]3NC(=O)c4ccccc4NC3=O)ccc2n1C | 2% |
| Cc1cc(C)cc(C(=O)N2CCN(c3cc(-c4ccc(Cl)cc4)[nH]n3)CC2)c1 | u |
| O=C1Nc2ccccc2O[C@H]2C[C@@H]1N(C1CCCC1)C2 | 0%[70.6 µM] |
| Cc1nn(Cc2ccccc2)c(C)c1[C@@H]1C=C[C@@H](NC(=O)c2cccs2)C1 | -6%[70.6 µM] |

Next part
| canonical_smiles | NPR1 antag |
| --- | --- |
| O=C(c1ccccc1Cl)N1CCC(N2CC3CCCN3C2=O)CC1 (configuration not stated) | 2% |
| CCn1nccc1C(=O)N1[C@@H]2CC[C@H]1CC(NC(=O)c1cnc(C)cn1)C2 (some centres not stated) | 1% |
| COc1ccccc1C(=O)Nc1ccnn1C1CCN(C(=O)CN)CC1 | 0% |
| O=C1COc2ccc(OCC3CC3)nc2CN1Cc1ccccc1 | -11%[70.6 µM] |
| COc1ccc(-c2cc(C[C@H]3CNCC[C@H]3CC(=O)NCc3ccccc3OC)no2)cc1 | -6% |
| COc1ccc(C2Cn3cnc(C(=O)N4CCC(C(=O)NCC5CC5)CC4)c3CO2)cc1 (configuration not stated) | -1% |
| O=C(c1ccc(Cl)s1)N1CCC(n2cnnc2-c2ccccc2)C1 (configuration not stated) | -8% |
| O=C(Nc1ccc2c(c1)C(=O)N1CCC[C@H]1C(=O)N2)c1cc(-c2ccccc2)n[nH]1 | 2% |
| COc1ccc(-n2cccn2)c(CN2CCC3(CCNC(=O)CC3)CC2)c1 | 1% |
| CCc1noc(C)c1C(=O)N1C[C@@H](C(=O)O)C[C@@H](C(=O)N2CCCC2)C1 | 5% |
| C=CCN1CCN(C(=O)C2CCCN(Cc3ccncc3)CCC(=O)NCC2)CC1 (configuration not stated) | 4% |
| COc1ccc(-c2noc([C@@H]3C[C@H](NS(=O)(=O)c4ccc5ccccc5c4)CN3C)n2)cc1 | 20µM* |
| NC(=O)C1CCN([C@H]2[C@@H]3OC[C@@H](O3)[C@@H](NCc3ccc(F)cc3)[C@@H]2O)CC1 | 10%[70.6 µM] |
| CCn1cc(-c2nc3cc(S(=O)(=O)N4CCCC4)ccc3n2C)c(C)n1 | -15% |
| CCN(CC1CCN(CCc2ccccc2C)CC1)C(=O)c1csc(C)n1 | -7% |
| C=CCNC(=O)N[C@H]1[C@H](O)[C@@H](N2CCCC2)[C@@H]2OC[C@H]1O2 | 6%[70.6 µM] |
| CCN(CC)Cc1cnc2c(C(=O)N(C)Cc3csc(C)n3)cnn2c1 | -2% |
| CCOC(=O)N1CCN(Cc2nccn2CCOC)CC1 | 3% |
| Cc1ccc(CN2CCC[C@H]2c2nc(-c3ccc(OC4CCCCC4)nc3)no2)cc1 | -15%[70.6 µM] |
| COc1cc(F)ccc1-c1cnc2n[nH]c(-c3sccc3C)c2n1 | -10%[70.6 µM] |
| Cc1ccc(C(=O)N[C@H]2CO[C@H]3[C@@H]2OC[C@@H]3n2cc(CN(C)Cc3ccccc3)nn2)cc1 | -4% |
| CCOCCn1nc(C)cc1C(=O)N1CC(C)(C)[C@@](C)(O)C1 | 1% |
| Cc1nc(C2CCCCN2C(=O)c2ccccc2F)n[nH]1 (configuration not stated) | -4% |
| COc1ccc(CC(=O)N[C@H]2[C@H](O)[C@H](O)C[C@@H]2c2ccc(C(F)(F)F)nc2)cc1 | -2%[70.6 µM] |
| CCOc1ccc(CC(=O)N2CCCC3(C2)Nc2cccnc2NC3=NC2CCCC2)cc1 (configuration not stated) | -3% |
| O=C(CC1=CCCCC1)N1CCC2(CC1)CC(O)CCO2 (configuration not stated) | -1% |
| O=C(Nc1ccc([C@H]2OCC(=O)N(Cc3ccc(F)cc3)[C@@H]2CO)cc1)c1cccnc1 | 8% |
| O=C(Cn1nc2c(cc1=O)CCCC2)NCCn1cnc2ccccc21 | 6% |
| COCCNC(=O)[C@@H]1C[C@@H](O)CN1C1CCN(C(=O)CCn2nc(C)cc2C)CC1 | 4% |
| CCn1ncc(N2CCCC(CC(=O)NCc3ccc(C)cc3)C2)cc1=O (configuration not stated) | 1% |
| O=C1NC[C@@H](CCC(=O)N2CCN(c3ccccn3)CC2)N2C[C@@H](NCc3ccc(CO)o3)C[C@@H]12 | 3% |
| CCCCN1C(=O)C(CC(=O)N2CCOCC2)Sc2ncccc21 (configuration not stated) | 2% |
| O=C(c1ccccc1)N1CCC2(CC(Cc3ccccc3)=NO2)C1 (configuration not stated) | 4%[70.6 µM] |
| Cc1noc([C@@H]2CC(F)(F)CN2C(=O)c2occc2C)n1 | 6% |
| CN1CCN(C(=O)c2ccc3c(c2)NC(C)(CCCCc2ccccc2)CO3)CC1=O (configuration not stated) | u |
| COC(=O)N1CCCC(c2nn(-c3cccc(Cl)c3)c(=O)[nH]2)C1 (configuration not stated) | -3% |
| O=C(Cc1ccccc1F)N1CCC(Oc2ncccc2C(=O)N2CCCCC2)C1 (configuration not stated) | 5% |
| COc1ccc(C(=O)N2CCCC(c3noc(COc4ccccc4F)n3)C2)cc1OC (configuration not stated) | -9% |
| COCc1nncn1C1CCN(C(=O)c2ccccc2F)CC1 | 5% |
| CC(C)(C)c1coc([C@@H]2COCCN2Cc2ccccc2F)n1 | 0%[70.6 µM] |

Not all compounds are listed (hit frequency here may not be typical).
